Source: PubChem (National Center for Advancing Translational Sciences (NCATS))
Vaccinia mCherry – inhibitors of vaccinia virus infection (mCherry reporter signal). Vaccinia virus mCherry reporter infection, fluorescence; about a quarter of the inactives have no number. Potency, µM (series often up to 36.5 µM), without a hit: top-dose activity change, negative = inhibition, hits mostly inhibitors. 310,000 tested, 0.63% active. AID 720579; active = well fitted inhibition curve with a large enough effect; inconclusive = small, poorly fitted or top-dose-only effect; inactive = no such curve, though single readings can be large or run the other way; tested in A549 cells; also: nearly all actives have a fitted effect of over 35% in size; inactives centre near -10
VACV Venus inh – inhibitors of vaccinia virus (Venus reporter); 330,000 tested, 0.46% active; AID 720580; Potency, µM (highest dose often 36.5 µM), for the others: at the highest dose activity change, negative = inhibition, most hits filed as inhibitors; Vaccinia virus Venus reporter expression, fluorescence; active means well fitted inhibition curve with a large enough effect; inconclusive means small, poorly fitted or top-dose-only effect; inactive means no such curve, though single readings can be large or run the other way; tested in A549 cells; also: nearly all actives have a fitted effect of over 30% in size; inactives centre near -10
Starred values were filed as active, the others as inactive; i = inactive; ? = inconclusive; nt = not tested or not shown; [ ] = another dose, or the depositor's remark. % is scaled to controls: 0 for no effect and ±100 for the full control effect; potency is read from the fitted curve at half-maximal effect.

SMILES	Vaccinia mCherry	VACV Venus inh
COCCNC(=S)NNC(=O)CSCc1ccc(Cl)cc1Cl	-5%	-9%
CCOc1ccc(/C=N/NC(=O)c2cc(-c3cccn3C)n[nH]2)cc1	-6%	-6%
CCC(C)N(C(=O)COC(=O)CCc1c[nH]c2ccccc12)C1CCS(=O)(=O)C1 (centres undefined)	i	0%
CCc1nnc(NC(=O)CSc2ccc(-c3cccs3)nn2)s1	3%	3%
CCOC(=O)c1cnc2c(C#N)cnn2c1N	-11%	-2%
COc1ccc(S(=O)(=O)NCC2CCC(C(=O)NCCC(C)C)CC2)cc1 (centres undefined)	-23%	-21%
Cc1cccc(N(C)S(=O)(=O)c2ccc(-c3cc(C)no3)s2)c1	-20%[7.34 µM]	-21%[7.34 µM]
O=C(NCC(c1cccs1)N1CCOCC1)c1cc([N+](=O)[O-])ccc1Cl (centres undefined)	-3%	-9%
CCOc1cc(C2Nc3ccccc3C(=O)N2c2ccccc2)ccc1O (centres undefined)	-2%	-12%
Cc1ccc(C)c(NC(=O)CCN2CCc3ccccc3C2)c1	-14%	-9%
Cc1ccc(SCCC(=O)NC(C)(C)C)cc1	-14%	-11%
CC(=O)c1cccc(NC(=O)Oc2ccccc2)c1	i	-21%
CC(=O)c1cccc(NC(=O)C2CCCN(S(=O)(=O)c3ccc(F)cc3)C2)c1 (centres undefined)	0%	-1%
CCCn1c(=O)sc2cc(NC(=O)c3ccccc3OCC)ccc21	1%	17%
CCOC(=O)C1CCN(C(=O)c2ccc3c(=O)n4nc(Nc5cc(C)ccc5C)sc4nc3c2)CC1	2%	-2%
Cc1[nH]n(-c2ccccc2)c(=O)c1C=Nc1ccc2[nH]c(=O)[nH]c2c1	-9%	-11%
CC(C)S(=O)(=O)c1csc(C(=O)NNC(=O)Nc2ccccc2)c1Cl	-19%	-18%
CCOC(=O)c1ccc(N2C(=O)c3n[nH]c(-c4ccco4)c3C2c2cccc(OC)c2)cc1 (centres undefined)	-27%	-20%
Cn1c(-c2ccccc2)cnc1NCc1cc(Cl)ccc1O	0%	-14%
CCOC(=O)C1CCCN(C/C(O)=C(\C#N)c2nc(-c3ccc(Cl)cc3)cs2)C1 (centres undefined)	i	-10%
Cc1ccc2oc(-c3cccc(NC(=O)c4ccc(Br)o4)c3C)nc2c1	nt	?
CCOC(=O)c1c(NC(=O)NC(C)(C)C)sc2c1CCN(C)C2	i	-8%
CC(C)(C)Nc1nc(Cl)nc(Nc2ccccc2)n1	-9%	-18%
Cc1ccc2sc(N(CCCN(C)C)C(=O)c3ccco3)nc2c1C	-21%	-20%
COC(=O)c1cc(NC(=O)c2cc(-c3ccc(Cl)cc3)oc2C(F)(F)F)ccc1N1CCOCC1	-21%	-14%
CC(C)(C)n1nnnc1C(c1cccs1)N(Cc1cccnc1)CC1CCCO1 (centres undefined)	-7%	-3%
COc1cc(C(=O)OCC(=O)Nc2ccc(S(=O)(=O)N3CCCC3)cc2)cc(OC)c1OC	-24%	-9%
CC(C)c1ccc(/C=C2\CC/C(=C\C=N\N(C)C)C2=O)cc1	-18%	-8%
O=C(NCCc1ccc(Cl)cc1)c1ccc2c(c1)OCO2	-13%	-9%
CC(C)c1c(O)ccc2c1CCC1[C@@](C)(CO)CCC[C@@]21C (some centres undefined)	-19%	-11%
Cc1cccc(-c2nnc(SCC(=O)NC3CCCC3)o2)c1	-13%	-21%
COc1ccc(-c2cnc(N)nc2-c2ccc(OCc3ccccc3)cc2O)cc1	?	?
CC1CCCN(CCSc2ccc(Cl)cc2)C1 (centres undefined)	-15%	-9%
CC(=O)c1ccc(NS(=O)(=O)c2ccc(C)cc2)cc1	-25%	-11%
O=C1CCC(Cc2ccccc2)N1 (centres undefined)	-4%	-11%
CCCc1cc(C(=O)NCC(C)C)no1	i	-18%
Cc1cccc(NC(=O)c2ccc(CN3CCc4ccccc4C3)cc2)c1C	-5%	-14%
COc1cccc(NC(=O)c2cccc(C(=O)Nc3cccc(OC)c3)n2)c1	-21%	-4%
COc1ccc(OC)c(S(=O)(=O)N2CCN(C34CC5CC(CC(C5)C3)C4)CC2)c1	i	-17%
CCc1nnc(SCc2ccc([N+](=O)[O-])cc2)nc1CC	?	-13%

Another view of part of the listing above.
> COC(=O)c1cc(NC(=O)c2cc(-c3ccc(Cl)cc3)oc2C(F)(F)F)ccc1N1CCOCC1
  Vaccinia mCherry = -21% | VACV Venus inh = -14%

> CC(C)(C)n1nnnc1C(c1cccs1)N(Cc1cccnc1)CC1CCCO1 (centres undefined)
  Vaccinia mCherry = -7% | VACV Venus inh = -3%

Later entries:
SMILES	Vaccinia mCherry	VACV Venus inh
Fc1ccc(-n2ncc3c(Nc4ccc(Oc5ccc(Cl)cc5)cc4)ncnc32)cc1	-5%	-1%
COc1ccc(C(=O)C[n+]2ccc(-c3nnc4n3CCC4)cc2)cc1	i	-11%
Cc1ccccc1C(C(=O)NC1CCCCC1)N(C(=O)CNC(=O)c1ccco1)c1cccnc1 (centres undefined)	-7%	-9%
NC(=O)c1ccsc1NC(=O)CN1C(=O)NC2(CCCC2)C1=O	-16%	-14%
COc1ccccc1CN(Cc1cc2c(C)ccc(C)c2[nH]c1=O)Cc1nnnn1Cc1ccco1	i	-4%
CCCC1(C(=O)O)NC(c2ccccc2O)C2C(=O)N(c3cccc(Cl)c3)C(=O)C21 (centres undefined)	3%	2%
CC(C)CCNC(=O)CNC(=O)c1cccs1	i	-7%
COc1ccc(C(C)C)cc1S(=O)(=O)Nc1cccnc1	-14%	-5%
O=C(OCc1nc2scc(-c3ccccc3)c2c(=O)[nH]1)c1cc(Cl)ccc1[N+](=O)[O-]	i	?
COCCN(C(=O)CNC(=O)c1cccs1)C(C(=O)NC1CCCCC1)c1ccco1 (centres undefined)	-11%	4%
CC(C)[C@H](NC(=O)c1ccco1)C(=O)OCC(=O)Nc1cccc(F)c1	i	-12%
CCOc1ccc(CNCCCSc2ncccn2)cc1	?	-9%
Cc1cc(NS(=O)(=O)c2ccc(NC(=O)CCCC(=O)O)cc2)nc(C)n1	nt	-19%
COc1ccc(C(NC(C)=O)c2ccc3cccnc3c2O)c(OC)c1 (centres undefined)	nt	?
COc1ccc(N2CCN(CCNC(=O)CCCn3c(=O)[nH]c4cc(Cl)ccc4c3=O)CC2)cc1	nt	-15%
O=c1oc(-c2ccccc2NS(=O)(=O)c2ccc(F)cc2)nc2ccccc12	-22%	-4%
O=c1[nH][nH]c2c1[C@H](CCc1cccc(Cl)c1)O[C@H](C1CC1)C2	i	0%
NC(=O)c1ccccc1NCC(=O)c1ccc(Cl)cc1	i	-2%
CCOC(=O)CSc1cc(C)nc(N)n1	-18%	-10%
CC(C)c1nn2c(=O)cc(COC(=O)c3ccco3)nc2s1	11%	-5%

Full records, looked up by structure. Screens in order: Vaccinia mCherry	VACV Venus inh
`NC(=O)c1ccsc1NC(=O)CN1C(=O)NC2(CCCC2)C1=O` is listed with -16%	-14%
`O=c1oc(-c2ccccc2NS(=O)(=O)c2ccc(F)cc2)nc2ccccc12` is listed with -22%	-4%
`COc1ccc(C(=O)C[n+]2ccc(-c3nnc4n3CCC4)cc2)cc1` is listed with i	-11%
`CCOc1ccc(CNCCCSc2ncccn2)cc1` is listed with ?	-9%

Filtered by structure: those above with a nitro group on carbon
SMILES	Vaccinia mCherry	VACV Venus inh
O=C(NCC(c1cccs1)N1CCOCC1)c1cc([N+](=O)[O-])ccc1Cl (centres undefined)	-3%	-9%
CCc1nnc(SCc2ccc([N+](=O)[O-])cc2)nc1CC	?	-13%
O=C(OCc1nc2scc(-c3ccccc3)c2c(=O)[nH]1)c1cc(Cl)ccc1[N+](=O)[O-]	i	?

The listing continues:
SMILES	Vaccinia mCherry	VACV Venus inh
CCc1ccc(-n2c(=O)c3c4c(sc3n(Cc3ccc(C)cc3)c2=O)CCC4)cc1	-6%	-2%
COc1cc([N+](=O)[O-])ccc1NC(=O)CCN1C(=O)C2C3CCC(C3)C2C1=O (centres undefined)	-18%	-6%
FC(F)(F)Oc1ccc(NC(=S)NCc2ccccc2)cc1	-4%	-28%
CS(=O)(=O)Nc1ccc(C(=O)NCCSCc2ccco2)cc1	nt	-12%
Cc1c(C)c2ccc(OC3CCCCC3=O)cc2oc1=O (centres undefined)	-19%	-13%
COc1ccc(CNC(=O)CCC(=O)n2ncc3cc(C)ccc32)cc1	i	-22%
C=CCOc1cccc(/C=N/NC(=O)C(OC)c2ccccc2)c1 (centres undefined)	i	-13%
O=C1NCCCC2c3c(cc(Br)c(O)c3Br)OC12N1CCCCC1 (centres undefined)	nt	-15%
Fc1cccc(F)c1C(Nc1nncs1)Nc1nncs1	1%	-5%
O=C(Nc1ccccc1N1CCN(C(=O)c2ccc(Cl)cc2)CC1)c1cccc([N+](=O)[O-])c1	-21%	-2%
O=C1NC[C@H](Cc2ccccc2)N(C[C@@H]2CCCN2C[C@H](Cc2ccc(O)cc2)N2C[C@H](Cc3ccccc3)N(CC3CCCCCC3)C(=O)C2=O)C1=O	-29%	-17%
CCC(C)CN1C(=O)CSCC1(C)C(=O)NCc1ccccc1 (centres undefined)	-9%	-11%
CCN(CC)S(=O)(=O)c1ccc2[nH]c(=O)[nH]c2c1	-16%	-9%
Cc1noc(C)c1S(=O)(=O)N1CCCC(C(=O)Nc2ccc(Cl)cn2)C1 (centres undefined)	-22%	-21%
COCCNC(=O)[C@@H]1CCCN1S(=O)(=O)c1cccc2cccnc12	-9%	4%
CN(CC1COCCO1)c1nc2nonc2nc1N1CCSCC1 (centres undefined)	i	4%
CC(=O)c1cccc(NC(=O)Cn2c(=O)oc3cc(S(=O)(=O)NC4CCCC4)ccc32)c1	-14%	-2%
COc1ccc(CSc2cccc3cccnc23)cc1[N+](=O)[O-]	-19%	-10%
CCOC(=O)c1c(C)[nH]c(/C(C)=N/O)c1C	?	-14%
O=[n+]1c2c(n([O-])c3cc(F)ccc31)CCCC2	-11%	-3%
CCn1c(=O)cc(OCC(=O)N2CCN(c3ccccc3OC)CC2)c2ccccc21	-11%	0%
CCOC1CC(C)(C)NC(=S)N1 (centres undefined)	-17%	-7%
OC1CCCN(CC(O)COC(c2ccc(F)cc2)c2ccc(F)cc2)C1 (centres undefined)	-2%	-4%
C=C(C)CN(CC)Cc1c(C(=O)N(C)CCCC)nc2ccccn12	-2%	-5%
OC[C@@H]1CN(Cc2ccncc2)C[C@H](n2cnc3c(NC4CCCC4)ncnc32)O1	i	-26%
NC(=O)C1CCN(CC(=O)Nc2ccc(S(=O)(=O)N3CCOCC3)cc2)CC1	-9%	-5%
COc1ccccc1NC(=O)Cn1c(=O)n(Cc2ccccc2)c(=O)c2sc3ccccc3c21	i	-8%
Cn1c(C(=O)NCCC2=CCCCC2)cc2c(=O)n3ccccc3nc21	-18%	-9%
NC(Cc1c[nH]c2ccccc12)C(=O)O (centres undefined)	-10%	-8%
O=C(Nc1cc([N+](=O)[O-])ccc1Cl)C(Sc1ccccc1)c1ccccc1 (centres undefined)	-19%	-9%
Cc1cccc(N2CC(C(=O)Nc3nnc(SCc4cccnc4)s3)CC2=O)c1 (centres undefined)	i	-8%
Cn1c(=O)[nH]c(=O)c2[nH]c(N(Cc3ccccc3)Cc3ccccc3)nc21	nt	?
CCOC(=O)c1c(C)n(C)c2ccc(OC)c(NS(=O)(=O)CC)c12	i	-7%
CC(=O)NNc1ccc(C(F)(F)F)cc1[N+](=O)[O-]	-15%	-7%
COC(=O)c1c(C)cc(OC(=O)c2c(C)cc(O)c(C=O)c2O)c(C)c1O	i	-10%
Cc1ccc(CNC(=O)CSc2n[nH]c(-c3ccc(F)cc3)n2)cc1	-17%	-12%
CC(C)NC(=O)c1cc(C2CCCCN2C(=O)c2ccc(Cl)cc2)on1 (centres undefined)	-8%	-7%
CCOc1ccccc1N1CC(C(=O)Nc2ccc(C(=O)O)cc2)CC1=O (centres undefined)	-15%[1.46 µM]	-2%
Cn1c2c(c3cnc4cc(Cl)ccc4c31)CNCC2	50%[activator]	3%
O=C(Nc1cccc(O)c1)c1cc(-c2ccco2)on1	1%	-1%

Some of these compounds in order of length of the SMILES, ascending:
SMILES	Vaccinia mCherry	VACV Venus inh
NC(=O)c1ccccc1NCC(=O)c1ccc(Cl)cc1	i	-2%
CCOC(=O)C1CCCN(C/C(O)=C(\C#N)c2nc(-c3ccc(Cl)cc3)cs2)C1 (centres undefined)	i	-10%
COc1ccccc1CN(Cc1cc2c(C)ccc(C)c2[nH]c1=O)Cc1nnnn1Cc1ccco1	i	-4%

Later entries.
SMILES	Vaccinia mCherry	VACV Venus inh
O=C(CSc1nnc(Cc2ccsc2)o1)c1ccccc1	i	-19%
O=S(=O)(N1CCCCC1)n1c(Cc2ccccc2)nc2ccccc21	-15%	-9%
COc1ccc(NC(C)=O)cc1NC(C)C(=O)Nc1cccc2ccccc12 (centres undefined)	i	-13%
Cc1ccc(OCCn2c(=O)cnc3ccccc32)cc1	nt	?
COC(=O)C1=C(c2cccc(OC)c2OC)C[C@@H]2CC[C@H]1N2C(=O)N1CCCC1	i	-5%
COC(COC(N)=O)C1=C(N2CC2)C(=O)C(C)=C(N2CC2)C1=O (centres undefined)	?	2.8µM*
CN1OC[C@@H]2CN(S(=O)(=O)c3cccc4ccccc34)[C@H](c3ccc(N4CCCCC4)cc3)C[C@@H]21	6%	-1%
Oc1c(Br)cc(Br)cc1/C=N/c1nc2c(s1)CCCC2	i	-17%
